Screens as filed in PubChem.
AF4-AF9 inh = MLL-AF4/AF9 protein interaction inhibition | AlphaScreen, biotin-AF4 peptide binding to FLAG-AF9 | 350,000 tested, 0.47% active | P42568 | AID 651704 | inhibition, % at 10 µM;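 active = every replicate reaching a set inhibition limit, whatever the replicate mean, cut at about 25% in these data; inconclusive = mean inhibition reaches that limit but some replicates miss it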;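 also: 0% = plate neutral control median and 100% = total signal loss; the record names both 10 and 1 µM as test concentration; the first replicate is given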
Target sequence (P42568 whole entry, looked up): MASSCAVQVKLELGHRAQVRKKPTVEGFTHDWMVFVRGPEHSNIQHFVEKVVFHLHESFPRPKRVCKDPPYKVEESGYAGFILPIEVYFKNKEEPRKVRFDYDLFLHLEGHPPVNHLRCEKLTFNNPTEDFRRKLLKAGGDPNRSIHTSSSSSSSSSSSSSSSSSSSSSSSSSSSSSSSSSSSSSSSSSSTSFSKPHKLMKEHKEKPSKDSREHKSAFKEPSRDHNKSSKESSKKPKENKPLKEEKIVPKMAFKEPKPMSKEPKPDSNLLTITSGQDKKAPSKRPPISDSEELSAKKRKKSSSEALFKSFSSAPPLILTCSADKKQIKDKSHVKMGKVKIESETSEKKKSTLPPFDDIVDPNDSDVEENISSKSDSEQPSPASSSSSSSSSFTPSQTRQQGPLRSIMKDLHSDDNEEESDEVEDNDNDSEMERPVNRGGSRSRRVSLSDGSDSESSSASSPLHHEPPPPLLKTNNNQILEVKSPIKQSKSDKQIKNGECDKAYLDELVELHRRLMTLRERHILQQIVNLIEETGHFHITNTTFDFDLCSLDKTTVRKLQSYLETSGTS
Calb FLC = affects C. albicans growth with fluconazole | C. albicans CaCi-2 (fluconazole-resistant clinical isolate) + fluconazole, Alamar Blue growth, 48 h | growth inhibition, % (concentration not given with the values) | 300,000 tested, 0.57% active;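 active = most replicates above 75%; inconclusive = exactly half above 75%; inactive = most below 75%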;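 also: all wells also contain fluconazole at 8 µg/ml as a sub-toxic cotreatment; 0% = median of DMSO wells and 100% = median of geldanamycin control wells; wells of about 8 µL received 7.5 nL stock; the first replicate is given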
T cruzi repl = blocks replication of Trypanosoma cruzi | T. cruzi beta-gal in NIH3T3, luminescence, 90 h | inhibition, % (concentration not given with the values) | 300,000 tested, 1.4% active | AID 1885;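 active = mean inhibition across valid replicates above about 55%, limit read from the data; inconclusive = mean below that limit but half or more replicates reach it; inactive = mean below it, under half of replicates reach it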;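 also: signal also drops with host cell toxicity which is not excluded here; 0% = plate median of DMSO wells and 100% = zero luminescence signal; higher percent means less beta-gal luminescence so fewer parasites; stock transfer was 50 nL into about 50 µL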
Beta apoptosis = blocks beta cell apoptosis. INS-1E cytokine-induced death, ATP luminescence, 48 h; percent of positive-control rescue, neutral wells zero. protection from apoptosis, % (test concentration not listed). 300,000 tested, 0.8% active. AID 435005;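 active = all replicates at 75% or more, or half of them and the mean; inconclusive = half reach 75% but not the mean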;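 also: 0% = cytokine-treated negative control wells and 100% = positive control rescue; higher means more ATP so stronger rescue from cytokine killing; wells of about 40 µL received 100 nL stock; the first replicate is given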
FGF22 binding = shifts melting point of recombinant human FGF22. Q9HCT0. recombinant FGF22 thermal shift, SYPRO orange fluorescence; percent of sucrose octasulfate shift, DMSO zero. calls only at 9.99 µM. 340,000 tested, 1.5% active;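 active = melting point raised past a set limit in the mean and every replicate; inconclusive = no clear call; three in four hits are not shown here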
Target sequence (Q9HCT0 whole entry, looked up): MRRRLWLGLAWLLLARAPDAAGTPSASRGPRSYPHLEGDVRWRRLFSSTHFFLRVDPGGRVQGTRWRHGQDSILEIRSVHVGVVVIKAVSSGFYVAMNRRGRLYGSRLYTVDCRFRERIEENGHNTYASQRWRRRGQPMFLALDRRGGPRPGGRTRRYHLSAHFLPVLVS
RanGTP-Imp inh = inhibitors of RanGTP-importin-beta interaction, primary screen, biochemical, FRET, CFP-Ran, YFP-importin-beta, homogeneous. cell-free CFP-Ran/YFP-importin-beta FRET ratio. inhibition, % (concentration not given with the values). 300,000 tested, 1.1% active. AID 2216;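 active = most replicates above 15%; inconclusive = exactly half above 15%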;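 also: 0% = DMSO wells and 100% = Ran loaded with GDP instead of GTP; wells of about 40 µL received 100 nL stock; the first replicate is given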
ALR inh = inhibitors of human sulfhydryl oxidase ALR. P55789. purified ALR, DTT oxidation, H2O2 HRP-luminol luminescence. inhibition, % (concentration not given with the values). 290,000 tested, 3.8% active;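 active = mean and each replicate at 75% or more; inconclusive = only one of the two met; inactive = neither met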;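 also: stock transfer was 7.5 nL into about 7.5 µL; 0% = neutral wells and 100% = wells with inactivated enzyme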
Target sequence (P55789 whole entry, looked up): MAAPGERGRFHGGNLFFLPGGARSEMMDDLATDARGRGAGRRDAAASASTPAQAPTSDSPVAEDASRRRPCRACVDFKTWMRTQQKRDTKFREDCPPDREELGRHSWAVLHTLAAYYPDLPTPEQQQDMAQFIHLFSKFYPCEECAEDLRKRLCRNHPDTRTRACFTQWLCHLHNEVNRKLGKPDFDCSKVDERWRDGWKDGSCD
Ecoli rRNA inh = inhibitors of bacterial rRNA selective over humanized ribosomes. E. coli WT GFP vs humanized-ribosome RFP mutants, fluorescence, 24 h; active compounds read low; DMSO median 0, no signal -100. GFP signal change (wild-type ribosome), % (concentration not given with the values). 350,000 tested, 1.6% active. AID 720706;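 active = significant combined selectivity score with lowered wild-type GFP, culture density cut under 30%, mutant RFP and density less affected; inactive = any of these conditions unmet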; also: one replicate is shown; some compounds called inactive have numbers as strong as hits
Ecoli rRNA inh OD600 = second read-out of Ecoli rRNA inh, no call of its own (marks repeat the call); OD600 change, %; measured here: OD600 growth;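 optical density of the mix in the first replicate; 0 = DMSO median and -100 = no signal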
Ecoli rRNA inh RFP = recorded beside Ecoli rRNA inh, whose call it bears; RFP signal change, %; measured here: RFP humanized mutant strains;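 first replicate; 0 = DMSO median and -100 = no signal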
* marks the source's active call; other numbers are inactive results; i = inactive; ? = inconclusive; . = not tested or not shown; & = joins results of further samples. Only part of the results is shown; the hit share may differ from the screen's.

SMILES	AF4-AF9 inh	Calb FLC	T cruzi repl	Beta apoptosis	FGF22 binding	RanGTP-Imp inh	ALR inh	Ecoli rRNA inh	Ecoli rRNA inh OD600	Ecoli rRNA inh RFP
Cc1ccc(N2C(=O)CSC2c2ccc3c(c2)OCO3)cc1 (stereo not drawn)	.	23	16	0	.	0.3	99*	.	.	.
O=C(CNC(=O)c1ccco1)OCC(=O)c1cccc2ccccc12	.	2	-12	-4	.	0.3	-1	.	.	.
C=CCOC(=O)C1=C[C@@H](c2coc3ccccc3c2=O)C[C@@H](OCCCCO)O1	-7.3&-1.8	0	-1	6	i	-2.9	-8	5	6	-0.9
CCOC(=O)c1cc(-c2ccccc2)sc1NC(=S)Nc1cccc(C)n1	.	-3	27	-3	.	-4.5	-6	.	.	.
Nc1ccc(Cl)c[n+]1Cc1cccc2cccnc12	5.2	-4	3	1	i	-0.2	-3	17	-1	-2.8
Cc1ccc(C(=O)NC2CCC(C)CC2)o1 (stereo not drawn)	-7.7	0	-10	4	i	3.6	4	1	10	-3.0
CCOC(=O)c1cnc2c(CC)cccc2c1NCCCN1CCOCC1	-0.5	0	23	5	i	0.8	-15	1	8	3.2
Cc1oc2cc(OC(=O)c3ccco3)ccc2c(=O)c1-c1nc2ccccc2n1C	3.5	-17	-5	-3	i	4.5	16	6	12	-0.3
O=C(CC(c1ccco1)C1CCCCC1=O)c1ccccc1 (stereo not drawn)	.	11	0	-3	.	0.8	0	.	.	.
CCCN1CCN(C(=O)c2c(Cl)cnn2C)CC1	-0.5	2	-8	-3	i	0.6	28	8	7	2.3
Cc1ccccc1C(=O)N1CCC(C(=O)NN2C(=O)NC3(CCCCC3)C2=O)CC1	-2.4	.	.	-3	i	.	-3	.	.	.
CCC1Nc2ncnc(N3CCCCC3)c2N(Cc2ccc(C)cc2)C1=O (stereo not drawn)	4.0&2.1	.	.	0	i	.	11	-17&-17	-14&-14	-11&1.1
Cc1cc(C)cc(NC(=O)c2ccc(N3C(=O)C4CCCCC4C3=O)cc2)c1 (stereo not drawn)	-0.4	-10	-9	-1	i	-2.4	-11	-4	-22	-0.1
O=[N+]([O-])c1ccccc1/C=C/C=N/Nc1nc(N2CCCCC2)nc(N2CCCCC2)n1	12	-7	24	2	i	0.1	-2	14	10	1.3
COC(=O)c1ccc(NC(=S)NNC(=O)c2ccccc2)cc1	-3.3	56	-17	-2	i	-0.1	92*	-52	-73	-28
CC1(C)CCSC(/C=C/c2ccccc2)=N1	0.1	12	35	.	i	6.5	.	7	6	-2.4
S=C(NCCc1c[nH]c2ccccc12)NC1CC1	5.9	22	-8	-2	i	-1.3	39	4	1	1.1
O=C(O)Cc1ccc(NC(=O)c2cccc(NC(=O)c3ccco3)c2)cc1	-0.6	0	-19	.	i	-2.8	7	3	4	3.5
O=C(NCCO)C(=O)c1c(-c2ccccc2)cc2ccccn12	0.0	-5	-5	-6	i	0.5	-3	-3	1	-1.5
CCN(CC)S(=O)(=O)c1cnccc1N1CCN(c2cccc(Cl)c2)CC1	.	12	65*	.	.	-3.3	7	.	.	.
Cc1ccc(-c2cn(-c3ccc(OC(F)F)cc3)c3[n+]2CCCCC3)cc1	-3.0	?	49	100*	.	-1.4	-2	-36*	-12*	8.2*
Cc1ccc(-c2nc3ncccn3c2Nc2ccc3c(c2)OCCO3)o1	.	6	5	-1	.	4.0	99*	.	.	.
COc1ccc(C2=NOC(Cn3nc(C(=O)O)cc3-c3ccccc3)C2)cc1 (stereo not drawn)	0.9	-6	5	-4	i	5.6	.	-10	-18	-3.1
O=C1c2cccnc2C(=O)N1C1CCCCC1	-3.7	-27	6	-1	i	4.3	-3	9	12	-2.3
CCCCOC(=O)c1ccc(NC(=O)COC(=O)c2ccc3ncsc3c2)cc1	2.0	.	.	0	i	.	-6	-11	-17	3.0
Cc1cccc(C)c1NC1=NC(=S)N(c2ccc(N(C)C)cc2)C1(C)C	.	1	34	-5	.	1.0	-10	.	.	.
CS(=O)(=O)N(CC(=O)N1CCc2ccccc2C1)c1cccc([N+](=O)[O-])c1	0.3	-8	3	-3	i	-5.5	-20	-1	1	-2.7
Cn1c(=O)oc2cc(S(=O)(=O)NCCC(=O)NCc3ccc(F)cc3)ccc21	0.8	18	-12	-3	i	1.5	-3	6	4	-1.1
COc1ccccc1OCC(=O)NCc1cccs1	.	20	3	-3	.	-0.6	-18	.	.	.
CC(=O)n1nc2nc(C)cc(C)c2c1N	.	?	4	-2	.	-2.5	51	.	.	.
CC(C)C(NC(=O)C1CCCCC1)C(=O)NC1=NCCS1 (stereo not drawn)	.	-14	-13	-2	.	0.3	-3	.	.	.
COc1ccccc1NC(=O)C(=O)NCCCN1CCCC1=O	-1.4	-7	23	-4	i	0.7	3	11	11	0.2
CCOc1ccc(NC(=O)C(=O)NCCN2CCN(C(=O)c3ccc(C)cc3)CC2)cc1	-2.1	1	-9	.	i	-2.3	-7	8	8	0.8
CCOC(=O)C1=C(COC(=O)[C@@H](NC(=O)c2cccc(C)c2)C(C)C)NC(=O)NC1C (stereo partly drawn)	-1.7	.	.	3	i	.	3	2	-1	4.6
Cc1cccc(C)c1OCC(O)CN1CCN(c2ccccn2)CC1 (stereo not drawn)	-0.3	-25	-9	-8	.	-4.0	4	-8	-7	2.5
COc1ccc(C2CC(c3ccccc3)=NN2C(=O)CSc2ncn[nH]2)cc1 (stereo not drawn)	6.1	-7	17	0	i	4.7	-20	-2	-3	-1.6
Oc1ccc(/C=N/n2c(-c3ccccc3)n[nH]c2=S)cc1Br	-7.6	-4	11	2	i	1.4	?	-8	-17	1.1
COc1ccc(C(=O)Oc2ccc3c(C)cc(=O)oc3c2C(C)=O)cc1	-2.7	3	-21	-6	i	-2.3	18	8	1	-4.2
N#CCC(=O)Nc1ccc(C(=O)NCc2ccccn2)cc1	-0.2	14	-11	-3	i	?	99*	1	2	5.0
O=C1CN(c2nc(-c3ccccc3)c3ccccc3n2)c2ccccc2N1	.	35	18	.	.	5.3	0	.	.	.
COCCN(C(=O)C1CC1)c1nnc(-c2cccc(C)c2)s1	.	-30	14	-2	.	0.9	-5	.	.	.
O=C(Nc1cccc(S(=O)(=O)Nc2ccc(Cl)cc2)c1)c1ccc(Cl)nc1	-1.1	2	-16	79*	i	1.6	.	-36	-56	3.3
CCOc1ccc(NC(=O)c2cccnc2C(=O)O)cc1	.	-23	2	0	.	-0.1	-7	.	.	.
CCOc1ccc(-c2c(=O)n(OCC)c3ccccc3[n+]2[O-])cc1	0.0	1	0	-2	i	4.4	-2	8	14	5.8
Cc1ccc(Oc2ncccc2/C=N/OCc2ccc(Cl)cc2Cl)cc1	.	3	11	2	.	3.9	-24	.	.	.
CCNC(=S)Nc1nc2c(cc1C(=O)OCC)CCCC2	1.9	-24	-27	13	i	0.5	-3	1	6	-3.4
COc1ccc(C(=O)Nc2cnn(Cc3ccc(Cl)cc3)c2)cc1OC	.	29	-15	0	.	2.4	-10	.	.	.
O=C(CCc1nc2ccccc2c(=O)[nH]1)NNC(=O)COc1ccc(Br)cc1	-3.5	3	-9	-4	i	3.5	-16	0	2	0.2
C=CCn1c(COC)nnc1SCC(=O)c1ccc(F)cc1	.	6	-8	-2	.	0.2	56	.	.	.
Cc1ccc(C(c2nnnn2CCc2ccccc2)N2CCSCC2)cc1 (stereo not drawn)	.	-5	18	-6	.	1.7	1	.	.	.
The list goes on.
SMILES	AF4-AF9 inh	Calb FLC	T cruzi repl	Beta apoptosis	FGF22 binding	RanGTP-Imp inh	ALR inh	Ecoli rRNA inh	Ecoli rRNA inh OD600	Ecoli rRNA inh RFP
COc1ccc(Br)cc1/C=N/N1CCN(Cc2ccccc2Cl)CC1	10	-13	20	5	i	-3.5	.	10	17	0.0
Cc1nn(-c2nnc(NC3CCCCC3)nn2)c(C)c1Br	.	-5	17	30	.	-0.7	-40	.	.	.
CCOC(=O)Cc1cnc(NC(=O)CSc2nc3ncnc(N)c3[nH]2)s1	-1.0	-14	-3	-2	i	3.2	69	18	9	2.2
O=C(CCc1ccccc1)NNC(=O)C1CCCCC1	.	4	-2	2	.	-1.6	7	.	.	.
O=S(=O)(NCc1csc(-c2cccs2)n1)c1ccccc1	-5.2	-10	15	1	i	1.1	-16	-11	-8	-0.3
COC(=O)c1cc(-c2ccccc2)sc1N	.	3	-10	-3	.	-6.4	?	.	.	.
CC(C)Oc1ccc(-c2cc(=O)[nH]c(=O)[nH]2)cc1	.	-4	-5	-4	.	1.5	-6	.	.	.
CCCCCCCCCOC(=O)C1N2C(=O)[C@@H](NC(=O)COc3ccccc3)[C@H]2SC1(C)C (stereo partly drawn)	.	16	-11	0	i	-0.9	-7	7	-3	-8.5
CCOC(=O)Cc1csc(SCC(=O)Nc2cccc(C#N)c2)n1	.	-14	-1	-9	.	-2.2	10	.	.	.
COc1ccc(CCNC(=O)c2coc3ccccc3c2=O)cc1OC	3.5	6	-8	3	i	-3.8	.	3	-8	6.8
CC(=Nc1ccccc1)C1=C(O)CC(C)(C)CC1=O	-2.3	10	-11	.	i	0.1	7	15	9	2.1
Cc1ccc(/C=N/n2c(C)cc(C)c(C#N)c2=O)cc1	.	0	-2	-6	.	-5.0	1	.	.	.
CCS(=O)(=O)N1CCC(C(=O)Oc2ccc(C(=O)OC)cc2)CC1	-0.3	-5	-15	4	i	?	-1	7	10	2.2
COc1ccc(C(=O)Nc2ncc3c(n2)-c2ccccc2CC3)cc1	.	-13	2	-4	.	-1.8	-16	.	.	.
CCOC(=O)C(=O)N1CCC(C(=O)OCC)CC1	4.0	-6	8	-4	i	3.6	-5	12	7	-0.4
Cc1nc2ccccc2n1C1CCN(CC(=O)Nc2ccccc2Br)CC1	-0.3	4	3	30	i	1.2	-3	-21	-29	-3.3
COCCC(=O)N1CCC(Oc2ccc(C(=O)N(C)CCCC3CCCC3)cc2)CC1	-2.3	5	13	16	i	4.9	-4	-2	-15	-0.9
O=C1CSC(c2cccc([N+](=O)[O-])c2)N1Cc1ccccc1 (stereo not drawn)	4.4	33	-6	-4	i	5.8	45	3	-5	-2.6
CC1(C)CC(=O)C/C(=N/NC(=O)COc2ccc(Cl)cc2Cl)C1	-2.4	4	8	-2	i	-10	11	11	8	12
CC(C)NC(=O)c1ccc(CS(=O)(=O)c2ccc(Br)cc2)o1	0.5	5	-4	-1	i	0.0	-6	4	3	2.7
Cc1nc2cc(OCc3cc(C(=O)NC(C)c4cn(C)nc4C)no3)ccc2s1 (stereo not drawn)	1.1	31	0	-1	i	?	0	-2	-6	-2.1
O=C1CC(c2cccc(Cl)c2)c2cc3c(cc2N1)CCC3 (stereo not drawn)	9.3	10	-8	.	i	0.8	-2	2	-6	0.7
